miR-21 FLuc = raises the signal of a miR-21 reporter. 340,000 tested, under 10 active. Potency, µM (series often up to 38.3 µM), for the others: top-dose reporter change, positive = more light. HeLa miR-21 FLuc reporter, luciferase, 48 h; active = well fitted rising curve with a large enough effect; inconclusive = small, poorly fitted or top-dose-only effect; inactive = no such curve, though single readings can be large or run the other way;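 also: % of control where 0% means no effect; miR-21 action dims this reporter so a rising signal means less miR-21 action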
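HeLa miR-21-FLuc reporter line, endogenous miR-21; 2000 cells/well in DMEM/10% FBS; compound titration up to ~40uM final, 48 h, 37 degree Celsius; luciferase detection reagent, 15 min lysis, CCD luminescence.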
The depositor's hits bear a star; ? = inconclusive. A portion of the library (hit frequency here may not be typical).

miR-21 FLuc	mol
?	Cc1ccc(Cl)cc1N1CCN(C(=O)c2cnc(N3CCOCC3)c3ccccc23)CC1
3%	Cc1ccc(S(=O)(=O)NCC(c2ccco2)N2CCN(c3ccccc3F)CC2)cc1 (centres undefined)
-1%	O=C(CSc1nc2c(c(=O)[nH]1)CN(Cc1ccc(F)cc1)CC2)Nc1ccccc1Cl
-3%	CC(C)N(Cc1nc(-c2ccc(Cl)cc2)no1)C(=O)c1ccc(C(C)(C)C)cc1
0%	CCOc1ccc(C2C(C(=O)Nc3ccc(OC)cc3)=C(C)Nc3nc(SCc4ccc(Cl)cc4)nn32)cc1 (centres undefined)
-1%	CCc1ccccc1NC(=O)Nc1c[nH]c(=O)[nH]c1=O
2%	O=c1c(=O)n(Cc2ccc(Cl)cc2)ccn1Cc1ccc(F)cc1
-1%	O=C(Cn1cc(S(=O)(=O)N2CCCC2)c(S(=O)(=O)N2CCCC2)c1)Nc1ccccc1
-7%	COC(=O)c1cc2oc3ccccc3c2n1CC(=O)Nc1ccc(Cl)cc1F
1%	Cc1nn(CCC(=O)NCc2ccc(Cl)cc2)c(=O)c2nn(-c3ccccc3)c(C)c12
-3%	O=C(Nc1cc(Cl)ccc1Cl)C1(c2cccs2)CCOCC1
-11%	O=S(=O)(c1ccc(Br)cc1)c1nnn2c1nc(NCc1ccc3c(c1)OCO3)c1sccc12
1%	CCC(CC)C(=O)N1CCc2cc(OC)c(OC)cc2C1COc1ccc(C(=O)OC)cc1 (centres undefined)
-9%	Cc1ccc(-c2nc(C)c(CCNS(=O)(=O)c3ccc(F)c(C(F)(F)F)c3)s2)cc1
21%	CCN(c1ccccc1)S(=O)(=O)c1c(-c2ccc(C)cc2)csc1C(=O)OC
-8%	CCOc1cc(C(=O)NCc2ccc3c(c2)CCN3C(=O)CC)cc(OCC)c1OCC
21%	Cc1nn(-c2ccccc2)c2c1N(CCCC(=O)NCc1ccccc1)C(=O)CS2
1%	CSc1ccccc1NC(=O)CCS(=O)(=O)c1nc(-c2ccc3c(c2)OCO3)cc(C(F)(F)F)n1
-5%	O=C(Nc1ccc(Cl)c(C(F)(F)F)c1)c1cc2nc(-c3ccc4c(c3)OCO4)cc(C(F)(F)F)n2n1
-2%	Cc1ccc2oc(C(=O)Nc3ccc(S(=O)(=O)Nc4ncccn4)cc3)cc(=O)c2c1

Reformatted bar-delimited: part of the list above
Molecule | miR-21 FLuc
CCN(c1ccccc1)S(=O)(=O)c1c(-c2ccc(C)cc2)csc1C(=O)OC | 21%
Cc1ccc2oc(C(=O)Nc3ccc(S(=O)(=O)Nc4ncccn4)cc3)cc(=O)c2c1 | -2%
Cc1ccc(S(=O)(=O)NCC(c2ccco2)N2CCN(c3ccccc3F)CC2)cc1 (centres undefined) | 3%
O=C(Nc1ccc(Cl)c(C(F)(F)F)c1)c1cc2nc(-c3ccc4c(c3)OCO4)cc(C(F)(F)F)n2n1 | -5%
COC(=O)c1cc2oc3ccccc3c2n1CC(=O)Nc1ccc(Cl)cc1F | -7%
O=C(CSc1nc2c(c(=O)[nH]1)CN(Cc1ccc(F)cc1)CC2)Nc1ccccc1Cl | -1%
O=C(Nc1cc(Cl)ccc1Cl)C1(c2cccs2)CCOCC1 | -3%

New compounds follow
miR-21 FLuc	mol
-2%	O=C(c1ccc2c(Cl)c3c(nc2c1)CCCC3)N1CCN(c2ccccc2)CC1
30%	CC1CCc2onc(C(=O)N3CCN(c4cccc(C(F)(F)F)c4)CC3)c2C1 (centres undefined)
5%	COc1ccc(-c2cc(C(C)=O)c(C)n2CCC(=O)Nc2cc(Cl)ccc2C)cc1
-1%	CC(C)c1ccc(NC(=O)Cn2nnc(C(=O)NCc3ccc(Cl)cc3)c2N)cc1
0%	O=C(COCc1cc(-c2ccc3c(c2)OCO3)on1)Nc1cc(C(F)(F)F)ccc1Cl
-31%	O=S(=O)(Nc1cccc(-c2ccc(N3CCCC3)nn2)c1)c1ccccc1C(F)(F)F
26%	O=C(Nc1ccc(F)c(F)c1)c1ccc(=O)n(Cc2ccc(F)cc2)c1
-2%	CCc1ccccc1NC(=O)c1oc(=O)c2ccccc2c1-c1ccccc1
-1%	CN(C)c1ccc(Nc2ncnc3c2c(-c2ccccc2)cn3-c2cccc(Cl)c2)cc1
1%	Cc1noc(Cn2c(=O)c3cc4c(cc3n(CC(=O)Nc3cccc(Cl)c3)c2=O)OCO4)n1
0%	O=c1oc2ccc3ccccc3c2cc1-c1nnc(Nc2cccc(C(F)(F)F)c2)s1
23%	CC(CNC(=O)c1ccc(CSc2nc3ccncc3n2Cc2ccccc2)cc1)c1ccccc1 (centres undefined)
0%	COc1ccc(-c2cc3nc(-c4ccc(Br)cc4)cc(C(F)(F)F)n3n2)cc1
-7%	Cc1ccc(NC(=O)CN2C(=O)CCn3nc(-c4cccn4C)cc32)c(Cl)c1
13%	COc1ccc(-c2onc(C)c2C)cc1S(=O)(=O)Nc1ccc(OC(F)(F)F)cc1
-17%	COC(=O)c1cc2oc3ccccc3c2n1CC(=O)Nc1ccc(C)cc1Cl
?	COc1ccc(C(=O)Nc2ccc3c(c2)N(C2CCCC2)C(=O)c2ccccc2S3)cc1OC
-1%	CCN(CC)CCNC(=O)Cn1ncc2c([nH]c3ccccc32)c1=O
?	Cc1ccccc1CNC(=O)c1ccc(-n2c(C)cc3c2CCCC3)cc1
-15%	Cc1ccc2c(c1)NC(c1cccnc1)=NC(c1ccc(F)cc1)=N2
-8%	Cc1cccc(OCc2nc(CC(=O)Nc3ccc(C)cc3C)cs2)c1
0%	O=C1Nc2ccccc2Oc2cc(Oc3ccc(Cl)cc3)ccc21
-3%	Cc1ccc(Cl)cc1NC(=O)N1CCN(C)c2ncccc21
8%	Cc1ccc(NC(=O)Cn2c(=O)n(CCCCCC(=O)NCc3ccc(F)cc3)c(=O)c3sccc32)c(C)c1
0%	COc1ccc(-c2cn3c(n2)sc2cc(C(=O)N4CCCCC4)ccc23)cc1
0%	O=C(CSc1nc2c([nH]c3ccccc32)c(=O)n1-c1ccc(F)cc1)NCc1ccc(F)cc1
0%	CCOc1ccccc1NC(=O)C(=O)Nc1ccc2nc3n(c(=O)c2c1)CCCCC3
-4%	CCn1c2ccccc2c2cc(CN3CCN(Cc4cccc(Cl)c4)CC3)ccc21
25%	O=C(c1ccc2c(c1)N(Cc1ccc(Cl)cc1)C(=O)c1ccccc1S2(=O)=O)N1CCCCC1
3%	CCc1ccc(CNC(=O)CSc2cc(=O)n(C)c3ccc(Cl)cc23)cc1
-25%	COc1ccccc1C(=O)Nc1cccc(C(=O)OCc2cc(=O)n3cc(C)sc3n2)c1
-2%	COc1ccccc1CNC(=O)CSc1cc(C)[nH]c(=O)n1
-5%	CN1CCN(C(CNC(=O)c2ccccc2)c2ccc3c(c2)OCO3)CC1 (centres undefined)
-1%	CSc1cccc(NS(=O)(=O)c2ccc3[nH]cc(C(=O)N4CCCC4)c(=O)c3c2)c1
22%	Cc1ccc(C)c(N2CCN(CCCNC(=O)C3COc4ccccc4C3)CC2)c1 (centres undefined)
1%	Cn1cc(S(=O)(=O)N2CCCCC2)cc1C(=O)N1CCN(c2ccccc2F)CC1
-19%	Cc1ccc(C)c(CSc2cn(CC(=O)N3CCCC3)c3ccccc23)c1
5%	CCOc1ccccc1CNC(=O)c1cc(-c2ccc(C)c(C)c2)nc2ccccc12
-1%	Cc1ccc(S(=O)(=O)c2cnc(SCC(=O)Nc3ccccc3C(F)(F)F)[nH]c2=O)cc1C
3%	O=C(Cn1ncn2nc(-c3cccs3)cc2c1=O)NCc1ccc(Cl)cc1
-2%	Cc1cccc(NC(=O)CCn2cnc3ccccc3c2=O)c1
-13%	CC(C)(C)OC(=O)N1CCC(c2c(C(=O)Nc3ccc4c(c3)OCO4)cnn2-c2ccc(F)cc2F)CC1
-21%	COCCNC(=O)c1ccc(CSc2nc3ccncc3n2Cc2ccccc2)cc1
20%	CCC(C(=O)N1CCN(c2ccccc2)CC1)n1nc(C)n2c(cc3sccc32)c1=O (centres undefined)
0%	Cc1cc(C)c(NC(=O)C2CCN(c3nnc(C)c4c(C)n(-c5ccccc5)nc34)CC2)c(C)c1
-7%	CCOC(=O)c1ccc(NC(=O)CCc2nc3cccnc3n2Cc2cccs2)cc1
-1%	N#Cc1ccccc1NC(=O)c1cnc(N2CCOCC2)c2ccccc12
-2%	COc1ccc(Cn2c(SCc3ccc(C(=O)NC(C)C)cc3)nc3cccnc32)cc1
3%	COc1ccc(-c2nnc(Nc3ccc(OC)c(C(N)=O)c3)c3ccccc23)cc1
0%	CC1CCC(NC(=O)C2(C)Cc3ccccc3C(=O)N2Cc2ccc(F)cc2)CC1 (centres undefined)
0%	COc1ccc(O)c(C2Nc3ccccc3-n3c(-c4ccccc4)c4c(=O)n(C)c(=O)n(C)c4c32)c1 (centres undefined)
?	Cc1csc2nc(COC(=O)c3cccc(NC(=O)COc4ccc(Cl)cc4)c3)cc(=O)n12
1%	COc1ccc(-n2c(-c3ccc(C)cc3)cc3c2CC(C)(C)CC3=O)cc1Cl
-1%	CCOC(=O)c1c(-c2ccc(C)cc2)csc1NC(=O)c1nc(SCC)ncc1Cl
?	CCOc1c(Cl)cc(CNc2ccc3[nH]c(=O)[nH]c3c2)cc1OC
-3%	Cc1cccc(N2CCN(CCNC(=O)C3COc4ccccc4C3)CC2)c1C (centres undefined)
14%	Cc1cccc(-c2noc(-c3ccccc3OCC(=O)Nc3ccc([N+](=O)[O-])cc3)n2)c1
-25%	CCc1nn(CC(=O)N2CCN(c3cccc(C(F)(F)F)c3)CC2)c(=O)c2cccn12
-44%	O=C(Cn1cc(SCc2ccccc2F)c2ccccc21)N1CCCCC1
-2%	Cc1ccc(C)c(-c2nc(Cn3c(=O)cc(-c4ccccc4)c4c(C)nn(C)c43)c(C)o2)c1

Some values from the entries so far:
Cc1nn(CCC(=O)NCc2ccc(Cl)cc2)c(=O)c2nn(-c3ccccc3)c(C)c12 in miR-21 FLuc → 1%
Cc1ccc2oc(C(=O)Nc3ccc(S(=O)(=O)Nc4ncccn4)cc3)cc(=O)c2c1 in miR-21 FLuc → -2%
CCC(CC)C(=O)N1CCc2cc(OC)c(OC)cc2C1COc1ccc(C(=O)OC)cc1 (centres undefined) in miR-21 FLuc → 1%

(listing goes on)
miR-21 FLuc	mol
-60%	Cc1c(C(=O)Nc2ccc(F)cc2F)oc2ccc3c(c12)C(=O)CC(C)(C)O3
-2%	Cc1cc(OCC(=O)Nc2nc3c(s2)CCCC3)cc(C)c1Cl
-12%	COc1cc(Cn2c(=O)sc3ccccc32)ccc1OC(C)C
-2%	COc1ccccc1N1CCN(C(=O)c2ccc3c(c2)NC(=O)C(CSCc2ccccc2C)N3)CC1 (centres undefined)
2%	CCOc1ccc(CNC(=O)COc2cc(=O)n(C)c3ccccc23)cc1
2%	CCOC(=O)c1c(C)[nH]c(C)c1S(=O)(=O)N1CCCC(C(=O)NCc2ccc(C)cc2)C1 (centres undefined)
0%	Cc1cccc(NC(=O)CSc2nnc3[nH]c(=O)cc(C)n23)c1C
-5%	Cc1ccc(-c2noc(COc3ccc(Br)c(C)c3)n2)cc1
-6%	COc1ccc(Br)cc1CNC(=O)C(C)n1nc(C)n2c(cc3occc32)c1=O (centres undefined)
1%	Cc1cc(N2CCN(c3ccc(F)cc3)CC2)n2cnnc2n1
5%	COc1ccc(CNC(=O)c2cccc(-n3cnc4cccnc43)c2C)cc1
-19%	CSc1ccc(CCNC(=O)c2csc3c2CCCCC3)cc1
5%	Cc1ccc(S(=O)(=O)N2CCC(C(=O)N[C@@H](C)C(=O)NC3CCS(=O)(=O)C3)CC2)cc1 (some centres undefined)
-14%	COc1ccc(-c2nc3cc(C(C)C)ccc3o2)cc1NC(=O)COc1ccc(C)cc1C
-7%	O=C(COc1ccc(F)cc1)Nc1ccc2nc(SCC(=O)N3CCc4ccccc43)sc2c1
?	Cc1ccc(NC(=O)CCN2C(=O)c3ccccc3Sc3ncccc32)c(Cl)c1
13%	O=C(Cn1cc(S(=O)(=O)Cc2cccc(Cl)c2)c2ccccc21)Nc1ccc(F)c(Cl)c1
-25%	CC(=O)N1c2ccccc2CC1C(=O)NCc1cccc(Cl)c1 (centres undefined)
22%	Cc1ccc(C)c(N2C(=O)N(C)c3ccccc3S2(=O)=O)c1
-4%	Cc1cc(Br)ccc1NC(=O)c1sc2nc3n(c(=O)c2c1C)CCCC3
4%	CCN(CC)CCCNC(=O)CCc1c(C)nc2c(c1C)c(=O)n(C)c(=O)n2C
2%	COC(=O)CCNC(=O)N1CCN(c2nnc(C)c3c(C)n(-c4ccccc4)nc23)CC1
?	CCN(Cc1ccccc1)S(=O)(=O)c1ccc(-c2coc(C)n2)cc1
0%	CN(C)c1ccc(-c2nc(-c3ccco3)no2)cc1[N+](=O)[O-]
-4%	CCOc1ccc(NC(=O)c2cc3cc4cc(OC)ccc4nc3s2)cc1
-53%	CCn1nnc2cc(C(=O)Nc3ccc(OC)cc3)ccc21
0%	COc1ccc(Cl)cc1NC(=O)Cn1c(=O)n2nc(-c3ccccc3)nc2c2ccccc21
0%	COc1ccc(NC(=O)Cn2c(=O)n(Cc3ccc4c(c3)OCO4)c(=O)c3ccc(C(=O)NC4CCCCC4)cc32)cc1
0%	COc1ccc(CCNC(=O)c2cc3c(=O)n(C)c4ccccc4c3s2)cc1OC
18%	CN(C1CCCCC1)S(=O)(=O)c1ccc(F)c(C(=O)Nc2ccc(C(F)(F)F)cc2)c1
9%	COc1ccc(-c2onc(C)c2C)cc1S(=O)(=O)NC1CCC(C)CC1 (centres undefined)
28%	CCc1ccc(S(=O)(=O)N(C(=O)c2ccncc2)c2ccc3oc(C)c(C(=O)OC)c3c2)cc1

Source: PubChem
